# TNAP inh hi DEA – human TNAP enzyme inhibitors, primary screen, biochemical, luminescent, high phosphate acceptor level, uHTS | AID 1135, 2008 | purified TNAP, CDP-star luminescence, 1 M DEA | Alkaline phosphatase, tissue-nonspecific isozyme (Homo sapiens), P05186 | hit rate 0.03% among 200,000 | inhibition, % at 20 µM;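 active = over 50% inhibition of tissue-nonspecific alkaline phosphatase at 20 µM in the single-dose screen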;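 note: plate controls were DMSO wells for no effect and EDTA-quenched wells as full inhibition for full effect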
# Target sequence (P05186 whole entry, looked up): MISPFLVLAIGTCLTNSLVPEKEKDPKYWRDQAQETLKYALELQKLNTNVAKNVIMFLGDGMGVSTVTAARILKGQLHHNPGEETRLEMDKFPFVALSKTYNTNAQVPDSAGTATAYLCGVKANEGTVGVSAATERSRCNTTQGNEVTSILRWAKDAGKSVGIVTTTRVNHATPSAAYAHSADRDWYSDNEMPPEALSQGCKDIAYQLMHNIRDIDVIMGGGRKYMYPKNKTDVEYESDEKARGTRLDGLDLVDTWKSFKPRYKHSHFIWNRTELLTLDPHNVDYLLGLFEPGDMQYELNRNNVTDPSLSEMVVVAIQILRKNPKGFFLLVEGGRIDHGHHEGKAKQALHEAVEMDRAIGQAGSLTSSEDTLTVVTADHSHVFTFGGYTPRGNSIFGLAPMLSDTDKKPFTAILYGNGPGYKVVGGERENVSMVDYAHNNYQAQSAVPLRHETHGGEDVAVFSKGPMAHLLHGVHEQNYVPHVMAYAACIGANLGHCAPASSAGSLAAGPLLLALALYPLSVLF
# TNAP inh no acc – human TNAP enzyme inhibitors, primary screen, biochemical, luminescent, no phosphate acceptor, uHTS. purified TNAP, CDP-star luminescence, 30 min. inhibition, % at 20 µM. hit rate 0.26% among 200,000. AID 1012, 2008;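 active = tissue-nonspecific alkaline phosphatase inhibition above about 50% at 20 µM in the single-dose screen, limit read from the data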;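 note: 0% = DMSO negative control and 100% = EDTA positive control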
# APP 5'UTR act – activators of APP 5'UTR luciferase reporter, primary screen, SH-SY5Y cells | hit rate 1% among 190,000 | AID 1276, 2008 | activation, % at 2 µM | SH-SY5Y APP 5'UTR luciferase reporter, luminescence; zero percent = DMSO vehicle wells;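 active = activation above a set limit, based on mean plus 3 SD of controls, cut at about 140% in these data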; note: values of inactives mirror those of a sister screen read the other way
# FLuc stim CS – FLuc activators, initial screening, artefact control for FLuc-dependent activation tests, biochemical, ATPlite luminescence; activation factor at 10 µM; 200,000 tested, under 10 active; Luciferin 4-monooxygenase (Photinus pyralis), P08659; AID 1027, 2008; ATPlite luciferase biochemical, 10 min; 0 = ATP-free wells, 1 = DMSO control;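 active = luciferase activation factor, scaled between plate controls, of at least 2 with compound at 10 µM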
# Target sequence (P08659 whole entry, looked up): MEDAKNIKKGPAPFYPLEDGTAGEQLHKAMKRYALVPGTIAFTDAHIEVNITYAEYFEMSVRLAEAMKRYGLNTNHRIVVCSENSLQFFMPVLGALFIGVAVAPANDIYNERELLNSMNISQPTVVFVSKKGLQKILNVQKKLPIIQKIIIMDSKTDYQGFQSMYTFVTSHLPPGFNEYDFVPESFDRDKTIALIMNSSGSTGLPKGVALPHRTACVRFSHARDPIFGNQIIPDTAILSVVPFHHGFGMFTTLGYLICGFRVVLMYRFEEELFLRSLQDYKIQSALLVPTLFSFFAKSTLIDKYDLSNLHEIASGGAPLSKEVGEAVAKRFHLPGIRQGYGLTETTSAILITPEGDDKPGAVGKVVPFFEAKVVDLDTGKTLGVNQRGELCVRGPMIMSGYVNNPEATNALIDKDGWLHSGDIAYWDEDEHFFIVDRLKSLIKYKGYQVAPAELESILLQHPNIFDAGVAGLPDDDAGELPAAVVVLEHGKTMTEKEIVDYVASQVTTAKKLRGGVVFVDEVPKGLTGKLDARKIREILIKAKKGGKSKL
#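 System: cell-free luciferase reagent; medium: PBS as buffer for the ATP substrate; doses: test compounds dosed from 2 mM stocks in 100% DMSO; incubation: 10 min, room temperature; measured by: luminescence from luciferase reaction; read-out: luciferase activation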
# TNAP act hi DEA – TNAP activators at high phosphate acceptor level, primary screen, biochemical, luminescence, uHTS | Alkaline phosphatase, tissue-nonspecific isozyme (Homo sapiens), P05186 | purified TNAP, CDP-star luminescence, 1 M DEA, 30 min; hits give high values; 0 = EDTA background, 1 = DMSO-only activity | activation factor at 20 µM | 200,000 tested, under 10 active;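 active = activation factor at least 2 at 20 µM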
#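 Control set: EDTA negative control, DMSO positive control / Assay system: human TNAP / Quantity: TNAP 1/800 final / Evaluation: TNAP activation factor scaled between EDTA and DMSO control wells / Measured by: luminescent substrate turnover signal / Compound dosing: one dose, 20 µM / Times: 30 min enzyme reaction at room temperature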
# bIAP activator – bovine intestinal alkaline phosphatase activators, primary screen, biochemical, bovine IAP, CDP-star luminescence | alkaline phosphatase, intestinal [Bos taurus] | purified bovine IAP, 30 min; hits give high values; fold of DMSO-control signal, blank-subtracted | activation factor at 20 µM | hit rate 0.17% among 200,000;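 active = activation factor of 2 or more at 20 µM, a signal rise over negative controls twice the positive control's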
# NF-kB expr up – activators of NF-kB expression in neurons, primary screen, cell-based, HTS; human neuronal cells, NF-kB reporter expression; hits give high values; fold change at 12.5 µM; hit rate 1.6% among 190,000; in the data active = fold change above about 3.3
# FLuc inh counter – firefly luciferase enzyme inhibitors, primary screen, artefact control for luciferase-based inhibitor screens, biochemical, luminescence, ATPLite | Luciferin 4-monooxygenase (Photinus pyralis), P08659 | 10 min | inhibition, % at 10 µM | hit rate 1.5% among 200,000 | AID 1006, 2008;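 active = inhibition above about 50% when tested at 10 µM, limit read from the data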
# Active calls of the source: *; · = not tested or not shown. The list is partial, so the mix of outcomes need not match the whole.
# Values run as follows: TNAP inh hi DEA, TNAP inh no acc, APP 5'UTR act, FLuc stim CS, TNAP act hi DEA, bIAP activator, NF-kB expr up, FLuc inh counter
- COC(=O)c1ccc(NC(C)=O)o1
    -1.9, -11.6, 5.5, 1.1, 1, 0.9, 1.22, -10.4
- CC(=O)c1cn(CC(=O)Nc2c(C)cccc2C)c2ccccc12
    -4.9, -6.9, -13.2, 1.1, 1, 1, 0.86, -5.0
- Cc1ccc(N2C(=O)C3C4C=CC(C4)C3C2=O)cc1C (stereo unspecified)
    -9.6, -16.0, 6.2, 1.1, 1.1, 1.1, 1.29, -7.0
- CCOc1ccc(N2CC(C(=O)OC)CC2=O)cc1 (stereo unspecified)
    -9.5, -12.5, -6.2, 1, 1.1, 0.9, 1.17, -0.7
- CCC1CCCCN1CCn1c(=S)[nH]c2cc(OC)c(OC)cc2c1=O (stereo unspecified)
    -3.1, 4.7, -14.9, 1, 1, 1.2, 1.03, -0.2
- CC(=O)c1c(N2CCN(C)CC2)[nH]c(-c2ccccc2)nc1=S
    -1.3, -14.6, -3.5, 1.1, 1, 0.9, 0.95, -9.5
- O=C(O)CSc1nc(C(F)(F)F)cc(=O)n1-c1ccccc1
    -6.4, -13.0, 2.5, 1, 1.1, 1.1, 0.96, -4.1
- O=C(Nc1ccc(Cl)cc1)C1CCN(C(=O)NC2CCCCC2)CC1
    -3.4, -1.1, 0.6, 1.1, 1, 1, 0.96, -6.5
- Cc1ccc(S(=O)(=O)/N=C(\c2ccc(F)cc2)n2c(C)nc3ccccc32)cc1
    -2.8, -7.9, -16.9, 1, 1, 1, 1.31, -2.2
- N#CCCn1nnc2ccccc21
    -2.0, -9.0, 9.5, 1, 1, 1.1, 1.08, -0.6
- CCOC(=O)c1cc(-c2ccc(OC)cc2F)nc2c1c(C)nn2CCC#N
    -6.1, -0.9, 4.3, 1.1, 1.1, 0.9, 0.73, -10.8
- CCN(/C=N/c1sc2c(c1C#N)CCCCC2)CC
    -3.0, -9.5, 116.6, 0.9, 1, 1, 4.25*, 14.6
- CCOc1ccc(C(=O)CCNC(Cc2cnc[nH]2)C(=O)O)cc1 (stereo unspecified)
    -4.1, 4.0, 10.8, 1, 1, 1.3, 1.07, -0.6
- CCOC(=O)c1ccc(NC(=O)C2(c3ccccc3)CCCC2)cc1
    -5.3, -9.5, 9.0, 1.1, 1.1, 1, 1.09, -5.2
- Cc1nnc2c(Oc3ccccc3)nc3ccccc3n12
    -6.3, -14.1, -4.2, 1, 1.1, 1, 1.15, -4.0
- C=CCNC(=O)c1cc(Cl)ccc1Cl
    -7.6, -8.0, 2.5, 1, 1.1, 0.9, 1.08, -2.1
- Cc1c(NC(=O)CCCOc2ccccc2)cccc1[N+](=O)[O-]
    -6.5, 3.8, 3.3, 1.1, 1.1, 0.9, 1.12, -7.5
- Cc1ccc(C(=O)NC(=S)Nc2ccccc2C(F)(F)F)cc1C
    0.3, 3.3, 31.5, 1, 1, 0.9, 1.16, 4.3
- COCCn1c(C)cc(C2=NNC(=Nc3ccc(F)cc3)SC2)c1C
    5.5, -2.6, 82.3, 0.8, 0.9, 0.9, 0.47, 17.9
- Cc1ccc(S(=O)(=O)N/N=C\c2ccccc2OCc2ccccc2)cc1
    0.9, -2.9, -3.0, 1.1, 1, 1, 1.51, -6.0
- O=C(O)CCn1nnc(-c2cccs2)n1
    4.4, -3.1, -4.2, 1, 1, 1, 1.29, -1.0
- COc1ccc(C(=O)NC(=S)Nc2cccc(Cl)c2N2CCOCC2)cc1[N+](=O)[O-]
    -3.4, 11.3, -5.9, 1.1, 1, 0.9, 0.84, -5.5
- Cc1cccc(OCC(=O)NC(=S)N2CCCc3ccccc32)c1
    -0.3, -7.4, 19.3, 1, 1, 1, 0.94, -4.1
- CC1(C)CC(=O)C(C(C2=C(O)CC(C)(C)CC2=O)c2ccco2)C(=O)C1 (stereo unspecified)
    4.1, 2.4, -2.9, 1.1, 1, 1, 0.96, -6.2
- CCOC(=O)C1=C(C)N(Cc2ccccc2)C(=O)NC1c1ccc(OC)cc1 (stereo unspecified)
    -3.8, -7.2, -2.1, 1.1, 1, 0.9, 0.83, -6.1
- Cc1ccc2oc(-c3ccc(C)c(NC(=O)Cc4cccs4)c3)nc2c1
    -2.3, -7.6, 10.7, 0.9, 1, 1.1, 1.15, 8.5
- O=C(NCc1ccco1)c1ccccc1NS(=O)(=O)c1ccc(Br)s1
    -4.3, -6.7, 4.7, 1.1, 1, 1, 0.82, -7.5
- COc1ccc(Br)cc1C(=O)Nc1cc(C)cc(C)c1
    -6.5, -16.4, -7.6, 1.1, 1.1, 0.9, 1.19, -5.7
- N#Cc1ccc(CNc2cnccn2)cc1
    -9.2, -10.2, 5.5, 1, 1.1, 1, 0.84, -3.6
- O=S(=O)(NCc1cccnc1)c1ccc(Cl)s1
    -5.4, -4.6, -12.5, 1, 1.1, 0.9, 0.91, -2.3
- O=C(c1cccc(F)c1)N1CCC(O)(c2cccnc2)CC1
    -5.4, -2.8, -2.7, 1.1, 1.1, 1, 1.34, -8.7
- CC(C)CCNC(=O)Cc1ccccc1[N+](=O)[O-]
    -1.4, -6.4, 12.0, 1, 1, 1.1, 0.92, -0.6
- COc1nnc(OC)c2ccccc12
    0.3, -8.6, -0.2, 1, 1, 1.1, 1.59, -3.1
- CC(C)c1cc(Nc2cccc(O)c2)cc(C(C)C)c1O
    10.1, 15.7, 11.2, 1, 0.9, 0.9, ·, -2.4
- C=CCOC(=O)C1=C(C)NC(SCC(=O)Nc2nccs2)=C(C#N)C1c1ccc(Cl)cc1 (stereo unspecified)
    -6.7, -8.0, -3.0, 1.1, 1.1, 1, 1.05, -10.2
- CCOC(=O)/C=C1\SCC(=O)N1CC(=O)Nc1ccc2c(c1)CCC2
    -2.3, -9.5, -4.2, 1.1, 1, 0.9, 0.95, -5.0
- CCOc1c2ccc(C(=O)NCCCCc3ccccc3)cc2nn1C
    1.8, -4.1, 17.6, 1, 1, 0.9, 1.45, -2.1
- CCCn1c(NC(=O)C2CCN(S(=O)(=O)c3cccs3)CC2)nc2ccccc21
    -5.9, 2.7, -11.1, 1.1, 1.1, 1, 0.47, -7.2
- Cc1cc(C)c(S(C)(=O)=O)c(Oc2ccc(F)cc2)n1
    -2.9, -7.2, 10.0, 1.1, 1, 1.1, 1.17, -5.8
- O=C(c1cc2nc(-c3ccco3)cc(C(F)(F)F)n2n1)N1CCc2ccccc2C1
    -4.8, 4.1, -4.4, 1, 1, 1, 0.73, -1.1
- C=C(C)c1cccc(C(C)(C)NC(=O)N2CCN(C/C=C/c3ccccc3)CC2)c1
    -3.0, -4.8, 18.5, 1, 1, 1.2, 0.7, -1.7
- CC1(C)CN(c2ccccc2)N(C(=O)c2ccc(F)cc2)C1=O
    1.3, -2.4, -9.9, 1, 1, 0.9, 1.31, -3.8
- Cc1ccc(NC(=O)Cc2ncc(C(F)(F)F)cc2Cl)cc1Cl
    -0.6, -7.2, 27.7, 1.1, 1, 0.9, 1.1, -8.2
- Cc1ccc2nc(C(C)O)[nH]c2c1 (stereo unspecified)
    -4.4, -1.3, -2.2, 1.1, 1, 0.9, 1.22, -7.0
- Cc1nnc(C)n1/N=C/c1cccs1
    -5.2, 1.0, -2.0, 1.1, 1.1, 1.1, 1.03, -10.3
- O=C(Cc1ccccc1)N[C@@H](Cc1ccccc1)c1nc2ccccc2[nH]1
    -4.7, 3.0, 1.5, 1.1, 1, 0.9, 1, -8.5
- CNC(=S)N1N=C(c2ccc(OC)cc2)CC1c1ccc(N(C)C)cc1 (stereo unspecified)
    -6.6, -6.8, -1.7, 1.1, 1.1, 1.1, 1.87, -6.5
- O=C(NN=C1C2CC3CC(C2)CC1C3)c1cc(Cl)ccc1O
    -7.0, -12.8, -0.1, 0.9, 1.1, 1, 1.48, 7.6
- CS(=O)(=O)N1CCN(c2ccc([N+](=O)[O-])c(N3CCOCC3)c2)CC1
    7.2, 1.9, 2.4, 1.1, 0.9, 0.8, 1.16, -5.4
- CCc1ccc(-n2c(=O)c3c(C)c(C(=O)N(C)C)sc3n(CC(=O)NCc3ccco3)c2=O)cc1
    -3.3, -11.1, -0.1, 1, 1, 1, 0.88, -4.4
- C/C(=N\NC(=O)Cc1ccccc1)c1cccs1
    -0.8, -3.9, -1.4, 1, 1, 0.9, 1.36, -2.5
- Cc1ccc(-c2noc(/C=C/c3ccccc3)n2)cc1
    1.9, -2.2, -13.7, 0.9, 1, 1, 2.12, 6.4
- O=[N+]([O-])c1ccc(C2CCCC/C2=N/OCc2ccccc2F)c([N+](=O)[O-])c1 (stereo unspecified)
    4.6, 0.1, 5.6, 1, 1, 0.7, 0.84, -3.0
- Cc1cc(C)c(S(=O)(=O)NCC23C=CC(O2)C2C(=O)N(c4ccccc4)C(=O)C23)c(C)c1 (stereo unspecified)
    -1.0, -7.0, -1.0, 1.1, 1, 1, 0.92, -5.9
- Cc1ccc(N2CCN(C(=O)c3ccccc3NC(=O)/C=C\C(=O)O)CC2)cc1
    -5.9, -13.2, 5.4, 1.1, 1.1, 1, 1.41, -7.3
- CC(C)OCC(O)CN1CCNCC1 (stereo unspecified)
    -1.8, 2.9, 9.0, 1.1, 1, 1, 1.22, -9.4
- CC(=O)Nc1ccnc(-c2cccnc2)n1
    -0.5, -6.8, 7.9, 1, 1, 1, 1.11, -1.9
- Cc1cc(=O)oc2cc(OCC(=O)Nc3nnc(CC(C)C)s3)ccc12
    -5.8, -12.2, 0.0, 1.1, 1.1, 0.9, 1.15, -9.7
- Oc1ccc(C(=S)N2CCCCCC2)cc1
    -0.8, -8.1, -15.6, 1, 1, 1, 1.26, 0.4
- Cc1cccc(CSc2nnc(NC(=O)c3ccco3)s2)c1
    -5.2, -12.1, 13.8, 1, 1.1, 1, 0.95, -4.8

# Reprinted from the part before: 4 compounds, followed by the next part.
# Values run as follows: TNAP inh hi DEA, TNAP inh no acc, APP 5'UTR act, FLuc stim CS, TNAP act hi DEA, bIAP activator, NF-kB expr up, FLuc inh counter
- CC(=O)Nc1ccnc(-c2cccnc2)n1
    -0.5, -6.8, 7.9, 1, 1, 1, 1.11, -1.9
- Cc1cc(=O)oc2cc(OCC(=O)Nc3nnc(CC(C)C)s3)ccc12
    -5.8, -12.2, 0.0, 1.1, 1.1, 0.9, 1.15, -9.7
- Oc1ccc(C(=S)N2CCCCCC2)cc1
    -0.8, -8.1, -15.6, 1, 1, 1, 1.26, 0.4
- Cc1cccc(CSc2nnc(NC(=O)c3ccco3)s2)c1
    -5.2, -12.1, 13.8, 1, 1.1, 1, 0.95, -4.8
- NC(=O)CN1C(=O)C2C3c4ccccc4C(c4ccccc43)C2C1=O (stereo unspecified)
    1.4, -0.4, -1.3, 1, 1, 0.9, 1.04, -1.6
- CCc1ccccc1NC(=O)C(C)n1nc([N+](=O)[O-])c(Br)c1C (stereo unspecified)
    -3.0, -6.4, 5.0, 1, 1, 1, 1.3, -4.5
- CCOC(=O)C1=C(O)C(=O)N(c2ccc(S(N)(=O)=O)cc2)C1c1ccc(OC)cc1 (stereo unspecified)
    27.1, 18.0, 2.1, 1.1, 0.7, 1, 1.7, -6.3
- CCNc1nc(Oc2ccc(=O)n(-c3ccccc3)n2)nc(N(C)C)n1
    -6.4, -9.8, 2.4, 1, 1.1, 0.9, 0.9, -4.1

# Screening data deposited in PubChem by several laboratories.
